# Sa ugtP lethal: growth inhibition of S. aureus ugtP deletion strain; growth inhibition, % (no concentration beside the values); S. aureus RN4220 ugtP deletion, OD600 growth, 16 h; some inactives read as strong as hits; actives 0.54% (n = 330,000); AID 1259309;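 active = z-score under -3 and OD600 up to 0.15 on both plates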;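 note: plate controls were untreated wells for no effect and antibiotic for full effect; wells of about 80 µL received 100 nL stock; the first replicate is given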
# Bead autofluor: flagged as autofluorescent in microsphere protease counterscreen. fluorescence intensity (no concentration beside the values). compound autofluorescence counterscreen, microsphere flow cytometry; hits give high values. actives 3.1% (n = 360,000);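 active = at least 3 SD above the mean of all compounds, about 16000 in these data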;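 note: 100 nL of 1 mM stock went into each well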
# Sa RN4220 lethal: kills Staphylococcus aureus RN4220; S. aureus RN4220 growth, OD600, 16 h; inhibition, % (no concentration beside the values); actives 0.33% (n = 330,000); AID 1259311;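 active = z-score of -3 or lower and OD600 up to 0.18 on both plates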;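 note: plate controls were untreated cells for no effect and reference antibiotic for full effect; stock transfer was 100 nL into about 80 µL; one replicate is shown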
# BJeLR lethal: kills HRASV12-expressing BJeLR cells. BJeLR (HRASV12) viability, CellTiter-Glo ATP luminescence, 48 h; reference of the scale not given here. inhibition, % (test concentration not listed). actives 0.17% (n = 300,000);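 active = replicate mean above 50%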;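 note: 50 nL library stock added to about 25 µL; numbers are from one replicate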
# PrP 5UTR inh: inhibition of PrP 5' UTR reporter expression; cell-based PrP 5' UTR mRNA reporter, plate reader; inhibition, % (test concentration not listed); actives 0.35% (n = 340,000);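 active = every replicate at 50% or more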;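 note: 0 = median of the neutral control wells; tested in H4 reporter cells; numbers are from one replicate; inactives centre near -14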
# Mtb hypoxia inh: Mtb hypoxia fluorescent reporter inhibition | M. tuberculosis hypoxia-regulated fluorescent reporter, fluorescence | fluorescence inhibition, % (no concentration beside the values) | actives 0.1% (n = 300,000) | AID 1159583;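 active = 35 to 45% if threefold the growth effect, above 45% if 1.5-fold the growth effect; inactive = the rest, general growth blockers included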;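 note: wells of about 50 µL received 100 nL stock; 0% = vehicle wells and 100% = reference inhibitor wells; whole bacteria with a GFP reporter of the hypoxia response; strong numbers were not always called active; many hits fall short of the cut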
# Mtb hypoxia inh growth: second read-out of Mtb hypoxia inh, no call of its own (marks repeat the call); growth inhibition, %; measured here: M. tuberculosis growth (absorbance);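 0% = vehicle and 100% = reference antibiotic; read after six days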
# Numbers without * were called inactive; . = not tested or not shown; & = joins results of further samples.
SMILES,Sa ugtP lethal,Bead autofluor,Sa RN4220 lethal,BJeLR lethal,PrP 5UTR inh,Mtb hypoxia inh,Mtb hypoxia inh growth
C[C@@H](NC(=O)[C@@H]1Cc2ccccc2CN1)C(=O)NC1CCCC1,9,6350,3.5,-2,-14,15,2
COCCNC(=O)c1cc2c(=O)n(C)c3ccccc3c2n1C,3,5253,0.8,3,-15,.,.
COc1ccc(Cl)cc1C(=O)NCCN(C)C,-4,3085,-0.1,1,7,5,4
CN(C)S(=O)(=O)c1ccc(N2CCCC2)c(C(=O)NNC(=O)c2ccc(Br)cc2)c1,-4,6073,12,6,2,-2,-5
Cn1cc(C(=O)Nc2ccc(F)c(Cl)c2)cn1,8,2402,1.8,-1,-16,-4,0
Nc1nc(Nc2ccc(Cl)cc2Cl)nc(C(F)(F)F)n1,2,2727,7.9,.,-4,.,.
Brc1cc2c(cc1CSc1ncccn1)OCO2,4,4073,3.9,0,-3,-8,2
Cc1cc(N(C)Cc2ccccc2)nc2cc(O)ccc12,-4,4563,1.6,-5,-3,15,7
CN1CCN(C(=O)C2=C[C@H](c3coc4ccccc4c3=O)C[C@H](OCCCCO)O2)CC1,.,3226,.,-4,-4,.,.
CC(=O)c1cccc(CN2CCCC(CCC(=O)NCc3ccccc3F)C2)c1 (stereo unspecified),-2,5183,7.2,13,-26,5,-2
CCOC(=O)c1sc(=NC(=O)c2c(F)cccc2F)n(C)c1C,6,4652,0.7,9,-49,17,11
CN1CCN(S(=O)(=O)c2cccc(C(=O)N3CCN(c4ccccc4F)CC3)c2)CC1,2,8988,4.4,.,-5,3,-9
c1csc(Cn2nnnc2CN2CCN(c3nc4ccccc4s3)CC2)c1,8,4591,-0.9,7,-35,.,.
Cc1onc(-c2ccccc2)c1C(=O)N1CCCSC1=Nc1ccccc1,-2&-7,3264&4844,3.4&4.0,7,-15&-16,1&12,-3&7
CC(=O)c1cccc(NC(=O)CNC(=O)Cc2cccc3ccccc23)c1,-3,3210,-3.0,.,1,8,1
Cc1cccc(C)c1OCc1cc(C(=O)N2CCN(c3ccc(F)cc3)CC2)no1,-2,4203,-2.0,5,-109,-2,7
Cc1cc(NC(=O)CSc2[nH]c(=O)cc(C(F)(F)F)c2C#N)no1,13,3079,6.4,.,-11,8,7
COCCNC(=O)C(c1ccc(C)o1)N(C(=O)c1snc(C(N)=O)c1N)c1cccc(C)c1 (stereo unspecified),0,9133,8.3,-9,-27,2,2
CON=C(CS(=O)(=O)Cc1ccc(OC)cc1)c1ccc(Cl)cc1,28,.,0.0,.,.,4,15
CC(NCc1cccs1)C(=O)Nc1cc(Cl)cc(Cl)c1 (stereo unspecified),0,4187,3.0,-18,-25,10,-2
COc1ccc(-c2c(C)nn(-c3ccccc3)c2N)cc1OC,3,8940,3.5,-8,-18,11,1
CCCC(=O)Nc1nn(CC(C)C)c2nc3cc(C)ccc3cc12,19,3025,5.1,-5,-18,-3,-1
CCCCOc1ncnc2c1[nH]c1ccc(C)cc12,-2,.,2.2,3,.,12,3
Cc1ccccc1-n1c(O)c(C=Nc2ccc(N(C)C)cc2)c(=O)[nH]c1=O,-6,9675,4.2,-3,-20,12,0
CCCN(C(=O)c1cn(CC)c2nc(C)ccc2c1=O)c1c(N)n(Cc2ccccc2)c(=O)[nH]c1=O,-1,4134,1.2,-10,-2,-7,-10
CC(=O)NCc1ccc(-c2csc(N)n2)s1,6,4405,7.9,0,-27,13,6
CC1(C)NC(=O)N(CCC(=O)Nc2cc(C(F)(F)F)ccc2Cl)C1=O,3,2786,3.4,.,7,-10,-5
NC1=C([N+](=O)[O-])C(c2ccccc2)C2=C(CCCC2=O)O1 (stereo unspecified),2,2310,2.5,2,-2,7,-2
CN(C(=O)CSC1=NCCS1)c1ccccc1,-1,2425,-6.4,-3,-7,16,5
CCc1c(C)nc2c(-c3ccccc3OC)c(C)[nH]n2c1=O,7,3215,0.6,3,-18,0,-4
CN(Cc1ccccc1)c1ncnc2ccc(Br)cc12,19,4810,3.3,-6,-9,.,.
NC(=O)c1sc2nc3c(c(-c4ccco4)c2c1N)CCCC3,9,4464,4.0,5,8,2,-5
COc1ccccc1[C@H]1C(c2cccc(C)c2)=NN(c2ccccc2)[C@@H]1CO,36,3171,-6.6,.,-5,5,1
C=CCn1c(CSc2nc3ccccc3s2)nnc1SCC(=O)NCCN1CCOCC1,0,7365,-0.4,1,-31,-4,-1
O=C(Nc1cccc(-n2cnnn2)c1)c1ccc(OC(F)(F)F)cc1,2,5062,-0.4,4,-9,-3,-1
COc1ccc(N2C(=O)CCC(C(=O)N3CCCCC3)C2c2ccc(F)cc2)cc1 (stereo unspecified),10,4098,-1.9,2,-9,.,.

# Rewritten with values under each structure: entries from further up.
# Below each compound – Sa ugtP lethal	Bead autofluor	Sa RN4220 lethal	BJeLR lethal	PrP 5UTR inh	Mtb hypoxia inh	Mtb hypoxia inh growth
Cc1onc(-c2ccccc2)c1C(=O)N1CCCSC1=Nc1ccccc1
 : -2&-7	3264&4844	3.4&4.0	7	-15&-16	1&12	-3&7
CC(=O)c1cccc(NC(=O)CNC(=O)Cc2cccc3ccccc23)c1
 : -3	3210	-3.0	.	1	8	1
Cc1cccc(C)c1OCc1cc(C(=O)N2CCN(c3ccc(F)cc3)CC2)no1
 : -2	4203	-2.0	5	-109	-2	7
Cc1cc(NC(=O)CSc2[nH]c(=O)cc(C(F)(F)F)c2C#N)no1
 : 13	3079	6.4	.	-11	8	7

# Next entries follow.
SMILES,Sa ugtP lethal,Bead autofluor,Sa RN4220 lethal,BJeLR lethal,PrP 5UTR inh,Mtb hypoxia inh,Mtb hypoxia inh growth
CO/N=C/c1c(-c2ccccc2)nn(C)c1Cl,.,3585,.,6,-1,.,.
Cc1ccccc1OCCC(=O)NCCc1ccc(S(N)(=O)=O)cc1,9,1999,5.7,-14,3,5,10
COc1ccc(C(=NOC(C)=O)c2nccc3cc(OC)c(OC)cc23)cc1OC,7,.,0.2,.,.,6,-7
O=C(NNC(=S)Nc1ccc(Cl)cc1)c1ccccc1OC(F)F,-11,2428,30,-5,-30,-13,-8
CN1CCN(C(=O)Nc2ccccc2)CC1,-6,4390,-1.0,1,5,-3,-3
COc1ccccc1CNC(=O)Cn1nnc(-c2ccncc2)n1,-6,5340,-1.8,1,2,.,.
CCc1cccc(CC)c1NC(=S)N1CCn2cccc2C1c1ccncc1 (stereo unspecified),8,4286,9.2,-13,-29,13,4
CCOc1ccccc1N1CCN(CC(=O)Nc2cc(C)on2)CC1,6,3353,4.4,6,-19,8,6
C=CCn1c(=N)n(CC(=O)OC)c2ccccc21,3,4372,2.1,-3,-9,.,.
CCCn1cc(S(=O)(=O)c2ccc(C)cc2)c(=O)c2cc(OCC)ccc21,2,4802,1.8,-12,-15,-7,-1
O=S1(=O)c2ccccc2N=NN1Cc1ccc(Cl)cc1,0,3504,-0.3,-1,-26,7,8
CC1=C(C(=O)OC2CCCCC2)C(c2ccccc2F)NC(=O)N1 (stereo unspecified),6,3775,7.4,0,.,4,-4
CC(=O)NC(CC(=O)NC(CCC(=O)O)C(=O)O)C(=O)O (stereo unspecified),-1,.,4.2,.,.,0,-2
CC(C)c1nnc(NC(=O)CCC(=O)N2CCN(Cc3ccc(F)cc3)CC2)s1,6,4448,0.1,-4,-2,18,9
OCCc1ccccc1,-4,.,2.5,0,.,-3,9
CCc1cc(=O)oc2cc(C)cc(OC(C)C(=O)NCc3cccnc3)c12 (stereo unspecified),0,6158,3.2,-5,-3,2,-6
CC(=O)NCCNc1nc2c(-c3cccc(C(F)(F)F)c3)nnn2c2ccccc12,12,3005,-0.5,-2,2,13,7
CCN1C(=O)c2ccc(C(=O)Nc3nccs3)cc2C1=O,8,.,-0.5,1,-22,.,.
CC(CS(=O)(=O)c1ccc(Cl)c(Cl)c1)=NNC(N)=S,1,.,10.0,.,.,.,.
CC1CCC(C(C)C)C(OCC(O)CNC(C)c2ccccc2)C1 (stereo unspecified),-1,4265,-0.5,-6,-5,4,-5
CC(C)C[C@@H](CC#N)N1CCN(CCc2ccccc2)CCC1=O,.,5633,.,-8,-10,.,.
CC(C)(C)n1ncc(Oc2ccccc2[N+](=O)[O-])c(Cl)c1=O,0,2147,0.7,5,-19,12,-1
CCN(C(=O)COC(=O)/C(C#N)=C/c1cc(C)n(CCOC)c1C)c1c(N)n(Cc2ccccc2)c(=O)[nH]c1=O,6,3067,2.6,.,-27,10,4
COc1ccccc1CNC(=O)COC(=O)CSc1ccc(Cl)cc1,1,4201,3.6,4,-15,-2,-1
O=C(NCc1cccc(Cl)c1)NCc1cccc(Cl)c1,-3,1965,-2.5,14,-9,7,-1
CC1CN(C(C)CO)C(=O)Cc2cc(NS(C)(=O)=O)ccc2OC1CN(C)Cc1ccc(Cl)c(Cl)c1 (stereo unspecified),8,.,5.2,.,.,0,0
CCC(O)c1cc2c(cc1NC(=O)c1ccc(C)cc1)OCCO2 (stereo unspecified),5,3699,0.9,1,-5,.,.
COc1ccc(C(=O)NCc2cccnc2)cc1Br,1,3034,1.8,12,-31,.,.
O=C(CN(C(=O)CNC(=O)c1ccco1)c1ccc2c(c1)OCO2)NC1CCCCC1,4,4706,-0.7,-1,-21,.,.
COc1ccccc1NC(=O)CSC1=NCCN1,14,2401,2.6,.,-20,17,5
COc1ccc(S(=O)(=O)Nc2ccc(S(=O)(=O)Nc3ccc(F)cc3)cc2)cc1C,-9,4208,-13,-8,-8,.,.
CC(NC(=O)CSc1nc2c(c(C(F)(F)F)n1)CCc1ccccc1-2)c1ccccc1 (stereo unspecified),21,3151,-10,-2,-19,.,.
O=C(Cc1cccs1)Nc1ccc(S(=O)(=O)Nc2ncccn2)cc1,5,3087,10.0,.,-11,1,17
CCN(CC)c1ncnc2sc3c(c12)CCC3,6,3166,6.4,-4,-18,.,.
O=C(Oc1coc(CSc2nnc(NC(=O)C3CC3)s2)cc1=O)c1c(F)cccc1F,.,3946,.,-1,-14,.,.
Nc1cccn2c(-c3ccc(Cl)c(Cl)c3)cnc12,1,3797,5.1,8,-116,-4,1
O=C(CN1C(=O)NC2NC(=O)NC21)NN=Cc1ccc(F)cc1 (stereo unspecified),2,.,1.8,.,.,5,4
COC(=O)c1ccc2nc(C3CCCCC3)c3c(c2c1)CCC3,3,4243,-13,8,-14,20,9
COc1ccc(/C=C/C(=O)N2c3ccccc3Sc3ccc(C(F)(F)F)cc32)cc1,16,2692,-2.6,1,-9,.,.
CC(C)(C)C(=O)/C(=C/c1ccncc1)n1cncn1,3,2257,4.6,22,-3,.,.
O=C(CN1CCN(CC(=O)c2ccc(Cl)cc2)CC1)c1ccc(Cl)cc1,-1,4185,4.1,.,-27,7,2
O=C(Nc1nccs1)C(NS(=O)(=O)c1ccc(Br)s1)c1ccccc1 (stereo unspecified),-10,2707,0.8,-11,-13,.,.
COc1ccc(Cl)cc1C(=O)N/N=C/c1ccc(N2CCOCC2)cc1,.,4077,.,5,-45,.,.
O=C(Cc1ccc(-n2c(=O)[nH]c3ccsc3c2=O)cc1)N1CCN(c2ccc(Cl)cc2)CC1,8,10214,9.1,1,6,6,6
Cc1cc(NS(=O)(=O)c2ccc(NC(=S)NC(=O)c3ccc(C(C)(C)C)cc3)cc2)no1,9,2454,26,-7,-15,17,17
COc1ccc(C(CC(=O)O)NC(=O)C(c2ccccc2)c2ccccc2)cc1 (stereo unspecified),12,3669,-3.9,-12,-18,14,1
COc1cc2cc(CN(Cc3cccnc3)C(=O)Nc3ccccc3F)c(=O)[nH]c2cc1OC,-3,4456,5.6,6,-13,8,4
CC(C)OC(=O)CNc1n[nH]c(=S)[nH]c1=O,-5,4595,-2.5,2,-11,1,7
CCOCC(=O)Nc1ccc(OCc2ccccc2)cc1,11,4111,6.6,-2,-36,3,2
Cc1cc(NC(=O)CSc2n[nH]c(-c3ccc(Cl)cc3Cl)n2)no1,-6,4663,2.7,.,-35,0,-8
C=CCn1c(Cc2cccs2)nnc1SCC(=O)Nc1ccc(OC)cc1,5,16196*,3.4,0,-16,5,3
CCOC(=O)c1cnc2ccc(Br)cc2c1NCCCN1CCOCC1,3,3539,2.0,2,-12,-5,-4
Nc1ccc(Sc2ccc(N)cc2)cc1,3,3889,6.0,.,-25,4,8

# Bioassay records deposited in PubChem BioAssay by several laboratories.
